Assay outcomes from PubChem BioAssay.
Vif A3G: inhibitors of Vif binding to APOBEC3G peptide, primary screen, biochemical, TR-FRET, GST-Vif 1-94, biotin-A3G peptide, dose response retest (AID 1117319); TR-FRET GST-Vif / biotin-A3G peptide binding; higher % means a stronger effect; test concentration not given here; strong numbers were not always called active; inhibition, %, or IC50 in µM where a hit was titrated; hit rate 0.57% among 260,000;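 active = above the screen mean plus three standard deviations and confirmed in dose response; inconclusive = results disagree or hit not tested in dose response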;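 note: Vif residues 1-94 fused to GST binding biotinylated APOBEC3G peptide 110-148; 0% = full assay without inhibitor and 100% = GST in place of GST-Vif; retest series ran down from 100 µM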
HNF4A DNA FP: change in binding of human HNF4 alpha to DNA; P41235; HNF4a-FITC DNA binding, fluorescence polarization, 1 h; activity change, % at 10 µM; hit rate 0.3% among 360,000; AID 1224865; in the data active = activity change above about 30%, passing the limit was not always enough;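 note: controls were the assay level and a saturating level of protein; the project sought stronger binding though the title names inhibitors; some compounds called inactive have numbers as strong as hits; positive values seem to mean higher polarization but the record does not say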
Target sequence (P41235 whole entry, looked up): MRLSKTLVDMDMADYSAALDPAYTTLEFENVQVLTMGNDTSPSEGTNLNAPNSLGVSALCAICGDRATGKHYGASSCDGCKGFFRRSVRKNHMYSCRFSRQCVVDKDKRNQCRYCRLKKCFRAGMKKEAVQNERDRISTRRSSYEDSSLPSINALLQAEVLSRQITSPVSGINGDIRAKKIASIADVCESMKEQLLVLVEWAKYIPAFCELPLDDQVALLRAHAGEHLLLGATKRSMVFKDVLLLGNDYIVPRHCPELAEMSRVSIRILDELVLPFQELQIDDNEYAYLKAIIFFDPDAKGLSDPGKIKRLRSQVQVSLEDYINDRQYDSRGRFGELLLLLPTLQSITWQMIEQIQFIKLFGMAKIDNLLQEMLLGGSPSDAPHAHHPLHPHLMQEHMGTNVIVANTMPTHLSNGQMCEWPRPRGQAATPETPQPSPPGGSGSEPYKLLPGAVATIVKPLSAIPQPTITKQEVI
FGF22 binding: binders of recombinant human FGF22 by thermal shift. Q9HCT0. SYPRO orange fluorescence; percent of sucrose octasulfate shift, DMSO zero. calls only at 9.99 µM. hit rate 1.5% among 340,000. AID 651658;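 active = melting point raised past a set limit in the mean and every replicate; inconclusive = no clear call; three in four hits are not shown here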
UCH37 inh: blocks the human deubiquitinase UCH37. Q9Y5K5. purified proteasome/UCH37, Ub-AMC cleavage fluorescence. inhibition, % (test concentration not listed). hit rate 0.33% among 330,000. AID 588478;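 active = mean of two replicates above 20%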;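 note: 0% = compound-free wells with enzyme and 100% = wells lacking proteasome; stock transfer was 100 nL into about 20 µL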
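System: Proteasome-associated human UCH37 deubiquitinase; Input: 0.15 nM proteasome in added enzyme buffer; Also added: Ub-AMC substrate from 1 µM stock; Incubation: 30 min compound-proteasome preincubation then 25 min substrate reaction, room temperature; Detection: fluorescence, ex 355 nm, em 460 nm; Read-out: % inhibition of Ub-AMC cleavage fluorescence; Benchmarks: no-proteasome and no-compound wells.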
MLL AF4-AF9 inh: blocks AF4 peptide binding to human AF9 | AlphaScreen, biotin-AF4 peptide binding to FLAG-AF9 | hit rate 0.47% among 350,000 | AID 651704 | P42568 | inhibition, % at 10 µM;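 active = every replicate reaching a set inhibition limit, whatever the replicate mean, cut at about 25% in these data; inconclusive = mean inhibition reaches that limit but some replicates miss it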;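 note: 0% = plate neutral control median and 100% = total signal loss; the record names both 10 and 1 µM as test concentration; the first replicate is given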
Target sequence (P42568 whole entry, looked up): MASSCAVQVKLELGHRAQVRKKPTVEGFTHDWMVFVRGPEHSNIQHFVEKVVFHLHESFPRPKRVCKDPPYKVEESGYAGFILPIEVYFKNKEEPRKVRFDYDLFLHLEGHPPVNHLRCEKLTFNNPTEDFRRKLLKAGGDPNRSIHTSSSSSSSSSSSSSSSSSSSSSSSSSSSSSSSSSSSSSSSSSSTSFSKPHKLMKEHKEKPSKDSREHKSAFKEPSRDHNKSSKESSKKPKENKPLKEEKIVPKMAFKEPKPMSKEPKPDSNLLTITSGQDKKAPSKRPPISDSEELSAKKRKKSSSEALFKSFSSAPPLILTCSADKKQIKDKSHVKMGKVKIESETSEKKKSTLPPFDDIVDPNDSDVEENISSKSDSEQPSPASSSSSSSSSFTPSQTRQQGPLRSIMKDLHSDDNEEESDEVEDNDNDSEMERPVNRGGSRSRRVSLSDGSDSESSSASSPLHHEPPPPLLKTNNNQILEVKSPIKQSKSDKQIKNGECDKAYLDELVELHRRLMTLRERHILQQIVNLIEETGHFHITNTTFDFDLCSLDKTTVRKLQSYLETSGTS
RanGTP-Impb inh: disruptors of Ran-importin-beta complex formation – biochemical, FRET, CFP-Ran, YFP-importin-beta, homogeneous, primary screen; inhibition, % (concentration not given with the values); cell-free CFP-Ran/YFP-importin-beta FRET ratio; hit rate 1.1% among 300,000;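 active = most replicates above 15%; inconclusive = exactly half above 15%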;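 note: 0% = DMSO wells and 100% = Ran loaded with GDP instead of GTP; wells of about 40 µL received 100 nL stock; the first replicate is given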
Ecoli growth: inhibitors of Escherichia coli growth; OD600, 23 h; hits give low values; hit rate 0.21% among 330,000; AID 1053175; OD600 absorbance (test concentration not listed);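 active = OD600 absorbance below the run mean of sample wells minus 3.6 SD, in any replicate, cut at about 0.56 in these data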;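 note: stock transfer was 300 nL into about 60 µL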
An asterisk follows results filed as active; i = inactive; u = inconclusive; x = not tested or not shown; & = joins results of further samples. The list is partial; count on the stated rates, not on these rows.

Values run as follows: UCH37 inh, RanGTP-Impb inh, Vif A3G, FGF22 binding, MLL AF4-AF9 inh, HNF4A DNA FP, Ecoli growth
> CC1(C(=O)Nc2ccc3c(c2)OCO3)CC1(Cl)Cl (stereo unspecified)
  0.0, 7.3, -5%, i, -1.4, 5.1, 0.72
> C=CCOCC(O)Cn1c(N2CCCC2)nc2c1c(=O)[nH]c(=O)n2C (stereo unspecified)
  1.5, -0.4, x, i, -3.1, 2.4, 0.69
> O=C(NCc1ccc(Cl)cc1)C1CC(O)CN1S(=O)(=O)c1ccc(Cl)cc1 (stereo unspecified)
  2.8, 7.5, x, i, -2.3, 2.2, 0.67
> O=C1NC2(CCCCCC2)C(=O)N1Cc1ccccc1Cl
  3.9, 1.5, 0%, i, -3.7, -4.0, 0.67
> COc1ccc(Br)cc1/C=C/C(=O)c1ccc(NC(C)=O)cc1
  3.6, x, 8%, i, -0.5, -2.0, 0.65
> Cc1cc(=O)n(C)c2ccc(S(=O)(=O)N3CCOCC3)cc12
  0.1, 3.1, x, i, 0.0, 1.9, 0.67
> CSC(=NCc1ccco1)NC#N
  5.9, -1.4, 7%, i, -3.3, 2.6, 0.67
> CC(=O)Nc1ccc(S(=O)(=O)N2CCn3cccc3C2C)cc1 (stereo unspecified)
  2.2, x, -12%, i, 4.0, -0.3, 0.65
> O=c1[nH]c(C2C3CC4CC(C3)CC2C4)nc2ccccc12 (stereo unspecified)
  2.6, 3.8, 27%, i, 1.5, 0.6, 0.68
> CC(C)c1ccc(NC(=S)NC2CCCCCC2)cc1
  0.4, -1.5, -3%, i, 2.7, 2.5, 0.7
> c1ccc(CNc2ncnc3c2oc2ccccc23)nc1
  -2.0, 4.4, -1%, x, x, 3.0, 0.65
> CCc1cc(S(=O)(=O)N2CCN(C(=O)c3ccco3)CC2)ccc1OC
  1.4, 0.3, -10%, i, -1.6, -1.9, 0.72
> O=C(CN1C(=O)NC(c2ccccc2)(c2ccccc2)C1=O)NC1CCCC1
  4.3, x, x, i, -10, -2.1, 0.71
> COC(=O)CC(NC(=O)CN1CCN(c2ccc(F)cc2)CC1)c1cccc(F)c1 (stereo unspecified)
  -1.4, 7.0, -8%, i, -4.7, -2.0, 0.65
> COc1ccccc1N1CCN(C(=O)c2cc(=O)c3ccc(C)cc3o2)CC1
  3.1, 0.0, 2%, i, 0.1, 0.4, 0.68
> COC(=O)c1c(NC(=O)CN2CCN(c3ncccn3)CC2)sc(C(N)=O)c1C
  -0.3, -1.2, x, i, 2.5, 1.8, 0.71
> CCOc1ccc2c(c1)c1nc3ccccc3nc1n2C
  1.2, -3.1, -10%, i, -0.1, 22, 0.64
> Cc1ccc(NC(=O)COC(=O)CCc2c[nH]c3ccccc23)cc1
  x, x, 7%, i, -2.6, -2.2, x
> COc1ccc(C(CNC(=O)c2ccc(N3CCCC3=O)cc2)N2CCCC2)cc1 (stereo unspecified)
  0.0, x, -4%, i, 2.3, 3.7, 0.69
> CC(=O)N[C@@H](Cc1c[nH]c2ccccc12)C(=O)NCCc1ccc(S(N)(=O)=O)cc1
  1.0, 6.1, -1%, i, 0.8, 4.6, 0.69
> COc1cccc2cc(C(=O)n3ccc(C)n3)c(=O)oc12
  4.0, -1.7, 6%, x, x, -2.6, 0.78
> CCCCN(C(=O)c1ccc(S(=O)(=O)N(C)c2ccccc2)cc1)c1c(N)n(CCC)c(=O)[nH]c1=O
  3.6, x, x, i, 0.5, 0.1, 0.71
> O=C(Nc1ccc(-c2nnc(-c3ccccc3)o2)cc1)C(F)(F)F
  -1.7, -1.2, 0%, x, x, 3.5, 0.75
> C=C(C)COc1ccc(-c2nc(N)nc(C)c2-c2ccc(OC)cc2)c(O)c1
  1.7, -1.4, -98%, x, x, -12, 0.72
> CCN1CCCC1CNC(=O)c1cc2c(OC)c(OC)c(OC)cc2[nH]1 (stereo unspecified)
  -17, -1.3, -3%, i, 15, -0.6, 0.7
> Cc1[nH]n(-c2cccc3ccccc23)c(=O)c1/C=N/NC(=O)c1cccc([N+](=O)[O-])c1
  x, u, 12%, x, x, 1.0, x
> CC(C)CN1CCN(Cc2cnc(N3CCOCC3)s2)CC1CCO (stereo unspecified)
  6.0, -2.0, x, i, 0.7, 1.1, 0.69
> COc1ccc(CCN(Cc2ccccn2)C(=S)Nc2ccccc2C)cc1OC
  -1.8, -2.5, -5%, i, 3.5, 1.1, 0.66
> CS(=O)(=O)c1ccc(NCC2CCCO2)c([N+](=O)[O-])c1 (stereo unspecified)
  4.2, 3.5, x, i, 1.9, 3.7, 0.7
> Nc1ccc(-c2nc3ccc(N)cc3o2)cc1
  i, 1.4, 10%, i, -0.6, -2.6, 0.73
> CC(C)COC(=O)C1C2C=CC3(CN(C4CCCC4)C(=O)C13)O2 (stereo unspecified)
  2.9, 3.6, 2%, i, 1.5, 0.2, 0.76
> S=c1[nH]c(-c2ccc(Cl)cc2)cs1
  4.9, 3.5, 2%, i, -1.9, 3.9, 0.68
> CCCc1nnc2n1N=C(c1ccc(-c3cc(Cl)ccc3Cl)o1)CS2
  3.2, x, 8%, x, x, x, 0.72
> CCc1ccccc1NC(=O)CN(C)C(=O)CSc1nc2cc(Cl)ccc2s1
  3.1, 1.8, 17%, x, x, 0.8, 0.59
> COc1ccc(OC)c(NC(=O)CSc2nnc(N)s2)c1
  -1.2, -1.0, 5%, x, x, 3.6, 0.74
> O=C(NCCCN1CCOCC1)c1c(F)cccc1F
  3.2, -1.1, 23%, i, 5.9, -0.5, 0.75
> CCO[C@H]1OC(C(=O)Nc2ccccc2)=C[C@@H](c2ccc(Br)cc2)[C@@H]1CCCO
  5.3, 7.9, -3%, i, 2.6&-1.6, -4.3, x
> COC(=O)c1sccc1NC(=O)Nc1cc(C)ccc1C
  2.0, -1.7, u, i, -1.3, -3.4, 0.66
> O=C(NCc1ccncc1)c1cc(C(=O)C2CCCCC2)c[nH]1
  3.7, -1.6, 0%, i, -3.6, -2.6, 0.72
> CCOCCCNC(=O)CN1N=C(c2ccc(C)cc2)CCC1=O
  0.7, u, -3%, i, -2.1, -0.4, 0.64
> O=CNc1cc(-c2ccoc2)cn2c(-c3ccc(F)cc3)cnc12
  x, x, x, i, 2.7, 17, x
> COc1ccc(N2CC(C(=O)NCCc3ccc(OC)c(OC)c3)CC2=O)cc1 (stereo unspecified)
  6.5, 4.1, -5%, x, x, 0.1, 0.72
> O=C(Nc1cc(N2CCCCC2)ncn1)c1ccccc1
  2.1, 6.7, -4%, x, 3.1, -0.1, 0.7
> COc1ccc(Br)cc1S(=O)(=O)N1CCCc2ccccc21
  4.7, 2.7, x, i, 1.1, -0.8, 0.66
> Cn1c(N)c(C(=O)Nc2ccc3ccccc3c2)sc1=S
  0.6, -5.3, -3%, x, x, 14, 0.76

Compound profiles (already shown). Values in the order: UCH37 inh	RanGTP-Impb inh	Vif A3G	FGF22 binding	MLL AF4-AF9 inh	HNF4A DNA FP	Ecoli growth
`O=C(NCCCN1CCOCC1)c1c(F)cccc1F` across the screens: 3.2	-1.1	23%	i	5.9	-0.5	0.75
`COc1ccc(OC)c(NC(=O)CSc2nnc(N)s2)c1` across the screens: -1.2	-1.0	5%	x	x	3.6	0.74
`S=c1[nH]c(-c2ccc(Cl)cc2)cs1` across the screens: 4.9	3.5	2%	i	-1.9	3.9	0.68

Later entries.
Values run as follows: UCH37 inh, RanGTP-Impb inh, Vif A3G, FGF22 binding, MLL AF4-AF9 inh, HNF4A DNA FP, Ecoli growth
> N#Cc1nc(Nc2cc(F)cc(F)c2)c2ncn(CC(F)F)c2n1
  3.1, x, x, i, x, 13, 0.65
> CCCCOc1ccc(OCCSc2nc3ccccc3n2CC(=O)O)cc1
  1.9, 18*, 26%, i, 2.2, -2.3, 0.68
> COc1ccc(NC(C)=O)cc1S(=O)(=O)N1CCn2cccc2C1C (stereo unspecified)
  1.5, x, x, i, 3.6, 2.1, 0.69
> CCOc1cc(CNc2ccc(N3CCOCC3)cc2)cc(Br)c1OCC
  3.1, -1.9, u, x, x, 1.4, 0.63
> O=C(O)CCCCCNS(=O)(=O)c1cccc2c1C(=O)c1ccccc1C2=O
  5.1, 13, x, i, 2.8, 0.4, 0.71
> CC(C)Cc1nnc(NC(=O)c2ccc(S(=O)(=O)N3CCCC3)cc2)s1
  1.4, x, -11%, i, 6.8, 1.9, 0.72
> Cc1cc(Br)ccc1OCC(=O)NNC(=O)C(=O)Nc1ccccc1
  1.0, u, 2%, i, -1.9, 0.6, 0.67
> Cc1ccc(SC[C@H](c2ccccc2)N2CCN(C)CCC2=O)cc1
  -0.8, 4.9, -2%, x, x, -2.7, x
> CCn1c(C)c(C)c2cc(C(=O)N3CCN(c4cccc(C)c4C)CC3)ccc21
  1.5, 5.6, x, i, 2.7, 2.4, 0.71
> Cc1ccc2nsnc2c1S(=O)(=O)N(Cc1cc2cccc(C)c2[nH]c1=O)CC1CCCO1 (stereo unspecified)
  2.7, 4.2, 1%&-99%, x, x, -0.9, 0.67
> CC(C)(C)CC(C)(C)NCC(=O)Nc1c2c(nc3ccccc13)CCC2
  2.2, u, 26%, i, -0.7, -1.2, 0.66
> O=S1(=O)N[C@H](Cc2ccccc2)COc2cc(N3CCN(Cc4ccccc4F)CC3)ccc21
  x, x, x, i, -2.7, 0.0, x
> NS(=O)(=O)c1ccc(CCNC(=O)Cc2c[nH]c3ccccc23)cc1
  -1.3, 4.0, 8%, i, 6.9, 1.3, 0.72
> CCn1c(-c2cc(Br)ccc2O)n[nH]c1=S
  3.3, u, x, i, -42, -1.1, 0.68
> CCOC(=O)Cc1csc(NC(=O)c2ccc(S(=O)(=O)N3CCCC3)cc2)n1
  5.2, -1.0, 14%, x, x, 0.2, 0.68
> CC(=O)N[C@@H](C)C(=O)OC(C)C(=O)Nc1cccc([N+](=O)[O-])c1 (stereo partly specified)
  0.9, x, x, i, -12, 0.8, 0.65
> S=c1[nH]nc(-c2ccco2)n1/N=C/c1ccc(Cl)c(Cl)c1
  x, 3.7, 13%, x, x, -1.8, x
> Fc1ccc(-c2nnc3sc(C4COc5ccccc5O4)nn23)cc1 (stereo unspecified)
  1.1, 7.5, 3%, x, x, 1.6, 0.67
> N#CCCN(C(=O)Cn1nc(C(=O)O)c2ccccc2c1=O)c1ccccc1
  4.5, 1.6, x, i, 9.0, 3.5, 0.71
> COCCn1c(SCC(=O)c2ccc3c(c2)OCCO3)nnc1C(C)C
  2.9, u, -8%, x, x, 1.5, 0.71
> O=C(CN1C(=O)NC2(CCCCC2)C1=O)Nc1ccc(Cl)cc1
  4.6, x, x, i, -2.1, 0.9, 0.68
> O=C(Nc1ccccc1C(=O)OCC(=O)N1CCc2ccccc2C1)c1ccco1
  0.9, 0.5, -7%, x, x, -1.3, 0.72
> Cc1noc(C)c1S(=O)(=O)Nc1cc(C(F)(F)F)ccc1N1CCOCC1
  2.1, 5.9, -4%, i, -1.7, 2.8, 0.59
> COc1ccc(OC)c2[nH]c(=O)c(CCNS(=O)(=O)c3ccc(C)cc3)cc12
  x, 6.0, -12%, x, x, 2.7, 0.67
> COc1ccc(C)cc1S(=O)(=O)NCc1ccccn1
  x, x, -3%, i, -1.3, 2.6, x
> CCN(CC)CCN1C(=O)C(=O)/C(=C(/O)c2c(C)[nH]c(C(=O)OC)c2C)C1c1ccccc1 (stereo unspecified)
  12, 2.8, u, x, x, -0.3, 0.62
> CCCCCn1c(=O)[nH]c2cc(C(=O)N3CCN(C(=O)OCC)CC3)ccc2c1=O
  -1.3, 1.6, x, i, 12, -3.1, 0.65
> O=C1C2ON(c3ccccc3)C(c3cccnc3)C2C(=O)N1Cc1ccccc1 (stereo unspecified)
  6.1, -3.7, 0%, x, x, 6.1, 0.66
> Cc1ccc(O)c(C(CC(=O)NCc2cccnc2)c2ccccc2)c1 (stereo unspecified)
  4.2, -0.5, 3%, i, 0.1, 5.3, 0.7
